TRPML1 inh: qHTS for Inhibitors of the Human Mucolipin Transient Receptor Potential 1 (TRPML1). Mucolipin-1 (Homo sapiens), Q9GZU1. activity change, negative = inhibition, % (concentration not given with the values). TRPML1-inducible cells, Ca2+ dye fluorescence, FDSS; stronger effect = lower value; inhibition of EC80 agonist-evoked calcium signal. 390,000 compounds, 0.02% hits; in the data active means activity change below about -50%; inconclusive means about -30% to -50%; inactive means above about -30%;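 also: stimulus is agonist 54-4 at its EC80 concentration; % is scaled to controls: 0 for no effect and ±100 for the full control effect; the text of the record puts the active cut at -80%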
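TRPML1-DL cells, Tet-induced overnight (~16 h, 37 °C) at 1,500 cells/well, were loaded with Ca8 no-wash dye plus quencher for 45-90 min at room temperature. Compounds were pinned during FDSS kinetic reading; agonist 54-4 at EC80 (4 uM final) then added.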
gsp antag: qHTS for Antagonists of gsp, the Etiologic Mutation Responsible for Fibrous Dysplasia/McCune-Albright Syndrome: qHTS | gsp-mutant cells, cAMP HTRF, 30 min; control for the full effect not named in the record | Potency, µM (series often up to 76.9 µM), without a hit: at the highest dose activity change, negative = inhibition, actives largely listed as inhibitors | 340,000 compounds, 0.4% hits; active = falling curve of any shape with a large fitted effect; inconclusive = falling curve, mostly with a smaller effect; inactive = flat or rising curve; cell line not stated here;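 also: intracellular cAMP measured with PDE inhibitor Ro 20-1724 present during compound exposure; potency is read from the fitted curve at half-maximal effect; % is scaled to controls: 0 for no effect and ±100 for the full control effect; nearly all actives have a fitted effect of over 65% in size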
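Cells in G418 medium, seeded 16-24 h, 37C; buffer exchange to DPBS + 1 mM CaCl2, 0.5 mM MgCl2, 0.05% BSA; cpds in DMSO + […] (300 uM stock), 30 min 37C; HTRF cAMP detection.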
gsp agonist: qHTS for Agonist of gsp, the Etiologic Mutation Responsible for Fibrous Dysplasia/McCune-Albright Syndrome: qHTS; gsp mutant cells, cAMP HTRF, 30 min; control for the full effect not named in the record; Potency, µM (top dose mostly 76.9 µM), for inactives: at the highest dose activation (cAMP increase), most hits filed as activators; 340,000 compounds, 0.13% hits; AID 624287, 2012; active = well fitted activation curve with a large enough effect; inconclusive = small, poorly fitted or top-dose-only effect, or another doubt; inactive = no such curve, though single readings can be large or run the other way; cell line not stated here;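 also: phosphodiesterase inhibitor Ro 20-1724 added with compounds to block cAMP breakdown; potency is read from the fitted curve at half-maximal effect; nearly all actives have a fitted effect of over 60% in size; about a fifth of the inactives were tested at one dose only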
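Cells stably selected in G418 were plated at 2000/well, grown 16-24 hr, then given compounds in DMSO with the PDE inhibitor […] (300 uM solution added) for 30 min at 37C; cAMP was read by HTRF.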
Menin-MLL FL inh: qHTS Assay for Inhibitors Targeting the Menin-MLL Interaction in MLL Related Leukemias: Competition With Fluorescein Labeled MLL-derived Peptide; AID 1766, 2009; 290,000 tested, under 10 active; Fluorescence polarization, fluorescein-MLL peptide displacement from menin; FP activity change, % at 61.4 µM; inconclusive = falling polarisation curve, or a change in total fluorescence; inactive = total fluorescence flat and polarisation flat or rising; no compound was filed as active; the % refers to the polarisation; negative = inhibition;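 also: % of control where 0% means no effect; inhibitors lower the polarisation; unlabelled MLL peptide was the positive control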
Sfp PPTase inh: qHTS Assay for Inhibitors of Bacillus subtilis Sfp phosphopantetheinyl transferase (PPTase) | 310,000 compounds, 3.5% hits | Potency, µM, for inactives: max response, negative = inhibition, usual class: inhibitors | 4'-phosphopantetheinyl transferase ffp (Bacillus subtilis), Q9F4F7 | Biochemical Sfp PPTase activity, qHTS; active = well fitted inhibition curve with a large enough effect; inconclusive = small, poorly fitted or top-dose-only effect, or another doubt; inactive = no such curve, though single readings can be large or run the other way;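 also: the enzyme is Sfp with the accession as filed and its product quenches rhodamine fluorescence; potency is read from the fitted curve at half-maximal effect; 0% = enzyme reaction without inhibitor and -100% = no enzyme wells; top concentration of the series not given in the record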
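Reaction rates are the 30-min fluorescence difference (ex 525, em 598 nm) in wells containing 15 nM Sfp, 5 uM rhodamine-CoA and 12.5 uM BHQ-2-YbbR at pH 7.6 with 10 mM MgCl2.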
ClpP mod: qHTS Assay for Activators of ClpP; 340,000 compounds, 1.9% hits; purified B. subtilis ClpP, FRET peptide cleavage, 20 min; ATP-dependent Clp protease proteolytic subunit (Bacillus subtilis (strain 168)), P80244; Potency, µM (doses to about 57.5 µM), without a hit: at the highest dose activity change, negative = active; active = well fitted falling curve with a large enough effect; inconclusive = small, poorly fitted or top-dose-only effect; inactive = no such curve, though single readings can be large or run the other way; also: potency is read from the fitted curve at half-maximal effect; the source files actives as falling curves though it sought activators and does not explain the sign; nearly all actives have a fitted effect of over 65% in size; many hits overshoot -100%
Target sequence (P80244 whole entry, looked up): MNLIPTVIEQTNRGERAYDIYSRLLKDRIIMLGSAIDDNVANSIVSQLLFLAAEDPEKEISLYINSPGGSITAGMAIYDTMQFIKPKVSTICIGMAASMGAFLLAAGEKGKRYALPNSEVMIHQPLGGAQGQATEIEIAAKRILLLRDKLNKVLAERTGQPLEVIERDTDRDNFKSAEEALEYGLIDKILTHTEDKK
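FRET quenching reversal measured ClpP activation: 10 microg/mL B. subtilis ClpP at pH 8 with the FRET-FV decapeptide, read at 430 nm after 320 nm excitation. The 20-min minus 0-min signal was scaled between DMSO/no-enzyme wells and ADEP (5.8 microM final).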
TRPV1 PAM: HTS Assay for Compounds that Act as Potentiators of the Vanilloid Receptor 1; Transient receptor potential cation channel subfamily V member 1 (Homo sapiens), Q8NER1; TRPV1-expressing cells, Fluo-8 calcium influx, capsaicin EC20 potentiation; host cell line not named in the record; control for the full effect not named in the record; potentiation, % at 8.33 µM; 320,000 compounds, 0.02% hits; active means potentiation above 80%; inconclusive means 30% to 80%; inactive means below 30%; also: 0% is about no effect
Target sequence (Q8NER1 whole entry, looked up): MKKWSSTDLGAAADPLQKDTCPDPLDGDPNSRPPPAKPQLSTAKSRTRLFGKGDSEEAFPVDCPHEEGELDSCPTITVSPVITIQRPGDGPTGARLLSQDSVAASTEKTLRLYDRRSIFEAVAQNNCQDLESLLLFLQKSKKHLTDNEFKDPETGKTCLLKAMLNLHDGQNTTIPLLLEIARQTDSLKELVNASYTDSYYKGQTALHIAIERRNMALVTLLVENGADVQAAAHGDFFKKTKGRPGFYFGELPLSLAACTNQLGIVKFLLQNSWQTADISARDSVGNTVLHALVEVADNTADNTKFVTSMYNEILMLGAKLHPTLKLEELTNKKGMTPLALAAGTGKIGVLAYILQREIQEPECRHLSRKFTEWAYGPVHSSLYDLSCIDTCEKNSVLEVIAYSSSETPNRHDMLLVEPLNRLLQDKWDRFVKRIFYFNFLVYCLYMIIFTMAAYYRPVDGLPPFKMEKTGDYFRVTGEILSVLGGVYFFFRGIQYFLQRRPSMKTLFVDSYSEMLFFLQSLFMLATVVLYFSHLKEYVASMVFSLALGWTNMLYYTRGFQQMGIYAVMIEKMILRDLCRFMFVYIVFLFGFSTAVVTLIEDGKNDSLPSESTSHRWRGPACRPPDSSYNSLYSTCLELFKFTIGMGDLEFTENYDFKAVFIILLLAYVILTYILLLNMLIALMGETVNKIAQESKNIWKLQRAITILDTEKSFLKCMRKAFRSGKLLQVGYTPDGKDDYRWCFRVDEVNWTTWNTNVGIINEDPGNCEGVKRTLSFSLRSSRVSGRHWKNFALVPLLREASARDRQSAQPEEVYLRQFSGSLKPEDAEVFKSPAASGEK
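Fluo-8 calcium influx in TRPV1-expressing cells, kinetic read (ex 480/em 520 nm). Compound added and read 3 min for agonist activity, followed by capsaicin at EC20 final and 2 min further read for enhancement.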
* hit, by the source's call; ? = inconclusive; . = no result given; [ ] = remark or other dose.

SMILES	TRPML1 inh	gsp antag	gsp agonist	Menin-MLL FL inh	Sfp PPTase inh	ClpP mod	TRPV1 PAM
CC(C)CNC(=O)C(=O)NCC(c1ccc2c(c1)OCO2)N1CCOCC1 (centres undefined)	-3.9	9.5%	14.2%	-0.9	2.5%	.	-6.8
O=c1c2ccc(Cl)cc2nc2n1CC/C2=C\c1cccc(O)c1	-0.8	?	0.4%	-1.8	4.2%	.	-5.1
COc1ccc(S(=O)(=O)N2CCC3(CC2)OCCN3S(=O)(=O)c2ccccc2)cc1OC	17.4	-23.6%	-51.4%[inhibitor]	.	.	-13.0%	-3.9
O=C(NC12CC3CC(CC(C3)C1)C2)c1cncc(O)c1	4.2	-20.8%	4.6%	1.9	15.6%	-26.5%	.
Cc1cccc(NC(=S)NC(=O)c2ccc(Br)o2)c1	-3.7	-5.0%	-9.6%	-4.1	-10.9%	.	-1.3
Cc1ccc(NS(=O)(=O)c2cccc(C(=O)O)c2)cc1S(=O)(=O)N1CCCCC1	-2.7	0.6%	-7.8%	0.6	34.6%[activator]	1.5%	8.8
COCCn1nnnc1C(c1cc2c(C)cc(C)cc2[nH]c1=O)N1CCCCCC1 (centres undefined)	43.5	-9.0%	-40.6%[inhibitor]	-1.8	-8.7%	-28.1%	-4.7
COC(=O)c1c(-c2ccc(OC)cc2)sc2cc(OC)c(OC)cc12	5.8	-14.3%	0.2%	.	.	3.8%	.
CCCCCCCCNCCS(=O)(=O)NCc1ccccc1OC	9.8	-7.9%	.	.	.	0.6%	.
CCOC(=O)N1CCC2(CC1)NC(=O)c1ccccc1N2	3.8	.	-31.1%[inhibitor]	.	.	4.4%	.
O=C(NCCCN1CCOCC1)c1cc2nc(-c3ccco3)cc(C(F)(F)F)n2n1	-5.1	8.0%	12.5%[15.4 µM]	1.0	15.4%	-3.4%	?
COc1cc(NC(=O)C/C(C)=N/NC(=O)c2ccccn2)c(OC)cc1Cl	-2.6	-6.8%	-4.3%[15.4 µM]	2.4	-6.4%	-5.6%	0.6
O=C(Cc1ccc(Br)cc1)Nc1ccccc1N1CCCC1	6.0	-5.0%	7.6%	.	10.4%	1.1%	-7.1
CCOC(=O)CSc1cc(CS(C)(=O)=O)nc(-c2ccccn2)n1	-1.0	-2.5%	0.2%	-4.3	-13.3%	.	-0.2
NS(=O)(=O)c1cccc(NC(=O)COC(=O)CCc2ccccc2)c1	36.0	6.9%	-40.3%[inhibitor]	2.2	14.1%	.	3.4

Reformatted with each value named: part of the list above.
COc1ccc(S(=O)(=O)N2CCC3(CC2)OCCN3S(=O)(=O)c2ccccc2)cc1OC
  TRPML1 inh = 17.4 | gsp antag = -23.6% | gsp agonist = -51.4%[inhibitor] | Menin-MLL FL inh = . | Sfp PPTase inh = . | ClpP mod = -13.0% | TRPV1 PAM = -3.9
NS(=O)(=O)c1cccc(NC(=O)COC(=O)CCc2ccccc2)c1
  TRPML1 inh = 36.0 | gsp antag = 6.9% | gsp agonist = -40.3%[inhibitor] | Menin-MLL FL inh = 2.2 | Sfp PPTase inh = 14.1% | ClpP mod = . | TRPV1 PAM = 3.4

(next part)
SMILES	TRPML1 inh	gsp antag	gsp agonist	Menin-MLL FL inh	Sfp PPTase inh	ClpP mod	TRPV1 PAM
NC(=O)C1CCN(C(=O)CCCCCn2c(=O)[nH]c3ccsc3c2=O)CC1	35.6	-3.3%	14.7%	3.0	-5.3%	-0.3%	?
CC(C)N(C(=O)[C@H]1C[C@H](CC(=O)NCc2ccco2)C(=O)N2CCc3c([nH]c4cc(-c5ccco5)ccc34)[C@]12C)C(C)C	-10.6	-7.0%	.	.	.	4.9%	.
COc1ccc(CN2CCCC2C(=O)Nc2ccc(OC)c(OC)c2)cc1OC (centres undefined)	-14.6	8.5%	-9.1%	5.2	22.1%	-3.2%	2.0
CC1CN(C(=O)c2ccncc2)CC(C)O1 (centres undefined)	4.9	5.1%	0.8%	-3.0	13.0%	-1.7%	-7.3
c1cn2cc(-c3ccc4c(c3)OCO4)nc2s1	22.8	9.4%	-7.9%	0.2	31.6µM*	0.1%	0.3
Cc1ccc(C(=O)NNC(=O)C2CCN(Cc3ccc(Cl)c(Cl)c3)CC2)cc1	-3.5	5.0%	29.9%	2.7	33.6%[activator]	-2.2%	-3.4
O=C1NC(c2cn(-c3ccccc3)nc2-c2cccs2)C(C(=O)c2cccnc2)C(O)(C(F)(F)F)N1 (centres undefined)	0.5	-1.3%	0.0%	0.5	2.6%	-0.5%	4.9
Cc1ccccc1NC(=O)/C=C/c1cccc(C(F)(F)F)c1	12.5	-5.8%	-13.9%	1.5	2.4%	-1.1%	-2.5
CS(=O)(=O)N(CC(=O)NCCSCc1c(F)cccc1Cl)c1ccc2c(c1)OCO2	12.7	-10.9%	?	-0.9	-3.0%	-5.2%	10.7
CCOc1ccc2nc(Cl)c(C3CC(c4ccco4)=NN3S(=O)(=O)c3ccccc3)cc2c1 (centres undefined)	-14.3	0.4%	-22.4%	14.6	25.5%	-23.6%	0.8
CCOc1cc(/C=C/c2cccc[n+]2C)ccc1OCC(=O)Nc1ccc(C)cc1	25.6	5.2%	-5.0%	.	-21.2%	.	0.6
CC(=O)OCC(=O)C1(O)CCC2C3CC(F)C4=CC(=O)CCC4(C)C3C(=O)CC21C (centres undefined)	3.3	2.1%	10.2%	.	.	.	.
COc1ccc(NC(=O)CCNS(=O)(=O)c2ccc3c(c2)c(=O)n(C)c(=O)n3C)c(OC)c1	1.5	10.4%	-26.3%[15.4 µM]	-1.6	28.1%	-2.2%	-3.0
CCOC(=O)CCc1c(C)n(CC)c2cc(-c3ccccc3OC)nn2c1=O	-13.5	-15.8%	9.1%	3.0	13.4%	11.2µM*	10.3
COc1ccccc1NC(=O)Nc1ccc2c(c1)CCC2	7.5	-26.3%	?	.	4.6%	1.1%	-13.5
O=C(CCCC(=O)c1ccccc1)Nc1ccc(F)cc1	-9.1	-24.7%	-5.6%[15.4 µM]	1.3	3.8%	?	-16.3
COC(CNC(=O)C1CCCN(S(=O)(=O)c2c(C)noc2/C=C/c2cccs2)C1)OC (centres undefined)	-9.5	-18.3%	26.8%	-0.9	7.0%	-1.6%	5.1
Cc1cc(NC(=O)CSc2nnc(-c3cccnc3)n2C2CCCCC2C)no1 (centres undefined)	4.7	-10.3%	-21.8%	-1.6	10.1%	-0.5%	-2.5
COc1ccc(CNCCCSc2ncccn2)cc1OC	45.3	3.2%	6.2%	0.3	7.0%	1.3%	-2.5
Cc1cccc(C)c1OCc1cc(C(=O)NCC2CCCCC2)no1	-21.4	20.4%	-23.8%	.	11.9%	0.6%	2.7
Cc1ccc(C(=O)NNC(=O)c2ccncc2)cc1[N+](=O)[O-]	9.7	4.4%	17.1%	.	.	-0.1%	-3.6
CCCCNc1c(-c2ccc(OC)c(SC3CCCCC3)c2)nc2cc(C)ccn12	7.8	-27.6%	.	.	.	4.5%	5.7
O=C(NC1CCCCCCC1)c1ccc(S(=O)(=O)N2CCCC2)cc1	-5.1	14.8%	-27.2%	4.3	-7.5%	-0.7%	-6.4
COc1cc2ccccc2cc1C(=O)NCC(c1cccs1)N(C)C (centres undefined)	37.4	-14.4%	20.0%[15.4 µM]	1.1	4.1%	3.16µM*	-12.7
CCN(CC)CCNCc1ccc(Br)cc1OCC(=O)NCc1ccccc1	33.9	6.1%	-1.1%	-2.0	19.7%	0.4%	-3.8
O=C(CN(C(=O)c1csnn1)c1ccccc1)NCc1ccc2c(c1)OCO2	16.6	-1.3%	-1.7%	-3.0	5.5%	.	-4.2
CCOC(=O)c1oc2ccc(OC)cc2c1NC(=O)CN1CCN(C)CC1	7.0	2.1%	?	4.0	-1.6%	15.8µM*	-0.8
Cc1cccc(-n2ncc3c2CCCC3NC(=O)Cn2cccn2)c1C (centres undefined)	-3.8	-6.0%	-41.0%[inhibitor]	.	13.3%	0.3%	-20.1
O=C(NNS(=O)(=O)c1ccc([N+](=O)[O-])cc1)c1cnn(-c2ccccc2)c1-n1cccc1	-1.2	-12.4%	3.1%	1.9	13.8%	-0.3%	?
CCn1c(SCC(=O)Nc2nc3ccccc3s2)nnc1-c1ccc(Br)cc1	12.0	17.7%	13.3%	-2.9	6.2%	-1.5%	-2.7
CCCc1cc(=O)n2[nH]c(-c3ccco3)nc2n1	-18.3	-11.7%	4.4%	-0.9	9.2%	-20.3%	2.5
CC1CCN(S(=O)(=O)c2cccc(C(=O)NCc3ccco3)c2)CC1	1.7	27.2%	25.1%	6.1	26.5%	1.4%	2.9
CN1CCN(CC(O)COc2ccc(OCC(O)CN3CCN(C)CC3)cc2)CC1 (centres undefined)	7.4	18.9%	-4.6%	3.3	-4.7%	-1.2%	-6.8
COc1ccc(-c2nc3cc(C)ccn3c2NC(=O)c2ccccc2OC)cc1	4.2	7.5%	19.0%	1.4	5.9%	0.9%	-31.3
[S-]c1nnc(-c2ccc(Br)cc2)n1-c1ccccc1.[Zn+2]	-10.4	10.1%	?	2.4	5.3%	-2.3%	3.8
O=C(CCNC(=O)c1ccco1)NNC(=O)c1ccc(Br)cc1	1.9	4.1%	?	.	.	-3.3%	.

Some values from the results shown.
Result for `O=C(CCNC(=O)c1ccco1)NNC(=O)c1ccc(Br)cc1` under gsp antag: 4.1%
Result for `CC1CCN(S(=O)(=O)c2cccc(C(=O)NCc3ccco3)c2)CC1` under TRPV1 PAM: 2.9
Result for `COc1ccc(-c2nc3cc(C)ccn3c2NC(=O)c2ccccc2OC)cc1` under gsp agonist: 19.0%
Result for `CN1CCN(CC(O)COc2ccc(OCC(O)CN3CCN(C)CC3)cc2)CC1` (centres undefined) under Sfp PPTase inh: -4.7%

Bioassay records: PubChem, National Center for Advancing Translational Sciences (NCATS)
